LANA-H2B inh: blocks KSHV LANA binding to histone H2A/H2B. cell-free LANA-H2A/H2B peptide, fluorescence polarization. inhibition, % (test concentration not listed). 320,000 compounds, 0.6% hits; in the data active means inhibition mostly above about 10%, no sharp cut-off; inactive means mostly below about 6.7%;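 further: stock transfer was 7.5 nL into about 10 µL; 0% = median of vehicle wells and 100% = median of positive control wells; one replicate is shown; the record names a cut of 25% in any replicate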
Calb FLC: affects C. albicans growth with fluconazole; C. albicans CaCi-2 (fluconazole-resistant clinical isolate) + fluconazole, Alamar Blue growth, 48 h; 300,000 compounds, 0.57% hits; growth inhibition, % (test concentration not listed);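 active means most replicates above 75%; inconclusive means exactly half above 75%; inactive means most below 75%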;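 further: all wells also contain fluconazole at 8 µg/ml as a sub-toxic cotreatment; 0% = median of DMSO wells and 100% = median of geldanamycin control wells; wells of about 8 µL received 7.5 nL stock; the first replicate is given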
Beta cell apopt: blocks beta cell apoptosis; INS-1E cytokine-induced death, ATP luminescence, 48 h; percent of positive-control rescue, neutral wells zero; protection from apoptosis, % (no concentration beside the values); 300,000 compounds, 0.8% hits; AID 435005;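 active means all replicates at 75% or more, or half of them and the mean; inconclusive means half reach 75% but not the mean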;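 further: 0% = cytokine-treated negative control wells and 100% = positive control rescue; higher means more ATP so stronger rescue from cytokine killing; wells of about 40 µL received 100 nL stock; the first replicate is given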
Vif TR-FRET: inhibitors of Vif binding to APOBEC3G peptide, primary screen, biochemical, TR-FRET, GST-Vif 1-94, biotin-A3G peptide, dose response retest (AID 1117319); inhibition, %, or IC50 in µM where a hit was titrated; TR-FRET GST-Vif / biotin-A3G peptide binding; higher % means a stronger effect; test concentration not given here; strong numbers were not always called active; 260,000 compounds, 0.57% hits;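 active means above the screen mean plus three standard deviations and confirmed in dose response; inconclusive means results disagree or hit not tested in dose response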;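 further: Vif residues 1-94 fused to GST binding biotinylated APOBEC3G peptide 110-148; 0% = full assay without inhibitor and 100% = GST in place of GST-Vif; retest series ran down from 100 µM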
T cruzi inh: T. cruzi replication inhibition; T. cruzi beta-gal in NIH3T3, luminescence, 90 h; inhibition, % (concentration not given with the values); 300,000 compounds, 1.4% hits; AID 1885;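 active means mean inhibition across valid replicates above about 55%, limit read from the data; inconclusive means mean below that limit but half or more replicates reach it; inactive means mean below it, under half of replicates reach it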;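 further: signal also drops with host cell toxicity which is not excluded here; 0% = plate median of DMSO wells and 100% = zero luminescence signal; higher percent means less beta-gal luminescence so fewer parasites; stock transfer was 50 nL into about 50 µL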
MLL AF4-AF9 inh: inhibitors of human MLL-AF4/AF9 interaction | P42568 | AlphaScreen, biotin-AF4 peptide binding to FLAG-AF9 | inhibition, % at 10 µM | 350,000 compounds, 0.47% hits;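 active means every replicate reaching a set inhibition limit, whatever the replicate mean, cut at about 25% in these data; inconclusive means mean inhibition reaches that limit but some replicates miss it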;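 further: 0% = plate neutral control median and 100% = total signal loss; the record names both 10 and 1 µM as test concentration; the first replicate is given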
Target sequence (P42568 whole entry, looked up): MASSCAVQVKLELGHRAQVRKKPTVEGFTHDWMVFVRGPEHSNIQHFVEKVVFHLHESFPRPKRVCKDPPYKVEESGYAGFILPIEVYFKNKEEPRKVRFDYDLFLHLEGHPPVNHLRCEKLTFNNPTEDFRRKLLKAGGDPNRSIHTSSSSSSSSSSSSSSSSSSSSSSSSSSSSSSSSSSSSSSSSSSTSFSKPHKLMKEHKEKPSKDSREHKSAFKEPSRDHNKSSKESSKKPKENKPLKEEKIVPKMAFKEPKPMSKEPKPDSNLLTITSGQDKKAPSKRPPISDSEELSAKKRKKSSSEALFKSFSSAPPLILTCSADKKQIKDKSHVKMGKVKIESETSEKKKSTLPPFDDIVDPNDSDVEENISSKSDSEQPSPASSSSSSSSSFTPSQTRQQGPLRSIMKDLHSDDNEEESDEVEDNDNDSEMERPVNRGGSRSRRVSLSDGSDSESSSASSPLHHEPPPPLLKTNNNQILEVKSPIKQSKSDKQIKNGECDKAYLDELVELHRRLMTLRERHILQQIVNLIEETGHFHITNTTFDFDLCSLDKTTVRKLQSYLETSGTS
RanGTP-Impb inh: inhibitors of RanGTP-importin-beta interaction, primary screen, biochemical, FRET, CFP-Ran, YFP-importin-beta, homogeneous | cell-free CFP-Ran/YFP-importin-beta FRET ratio | inhibition, % (concentration not given with the values) | 300,000 compounds, 1.1% hits;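 active means most replicates above 15%; inconclusive means exactly half above 15%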;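 further: 0% = DMSO wells and 100% = Ran loaded with GDP instead of GTP; wells of about 40 µL received 100 nL stock; the first replicate is given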
Bfl-1 A1 inh: inhibitors of the anti-apoptotic protein A1, read as caspase activation. MEF A1-2A-BIM cells, Caspase-Glo 3/7 luminescence, 3 h; percent of clofoctol response, vehicle zero. caspase activation, % (concentration not given with the values). 330,000 compounds, 0.066% hits;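 active means over half of replicate activation scores above 10%, or exactly half above 10 with the replicate mean above 10; inconclusive means replicate mean below 10 yet half the replicates above 10; inactive means over half of replicates below 10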;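 further: wells of about 30 µL received 50 nL stock; many hits fall short of the cut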
* marks the source's active call; other numbers are inactive results; u = inconclusive; x = no result given.

SMILES	LANA-H2B inh	Calb FLC	Beta cell apopt	Vif TR-FRET	T cruzi inh	MLL AF4-AF9 inh	RanGTP-Impb inh	Bfl-1 A1 inh
Cc1ccccc1OCC(O)CN1CCN(CC(O)COc2ccccc2C)CC1 (stereo not drawn)	0.4	39.6	-4.8	x	-5.0	4.4	-1.6	-0.6
CCOc1oc(-c2ccc(OC)cc2)nc1C(F)(F)F	6.1	15.9	-0.7	-7.0%	4.0	x	u	-0.1
CCN(CC1CCCO1)C(=O)C1CCN(C2CCN(Cc3ccccc3C)CC2)CC1 (stereo not drawn)	-11.8	-8.2	-8.8	x	10.9	3.6	4.0	0.4
O=C(NCc1cccnc1)C(=O)N/N=C/c1ccccc1[N+](=O)[O-]	-1.2	-2.3	-3.8	6.5%	-7.2	-2.1	0.6	1.4
O=C1NC(=O)C2C1C(c1cccs1)NN2Cc1ccccc1 (stereo not drawn)	2.0	2.9	-4.2	3.5%	-5.8	1.1	0.5	0.0
O=C(NNc1nc2ccccc2nc1C(F)(F)F)c1ccccc1	-8.3	-25.4	-0.2	25.8%	10.2	x	2.0	-0.2
CN(C)c1ccnc(-n2cccc2/C=N/OCc2ccccc2)c1C#N	3.2	-3.1	-9.3	18.8%	6.0	x	3.4	1.2
O=C(Nc1ccc2nc(-c3ccccc3)[nH]c2c1)c1ccco1	-4.3	-43.5	x	-2.3%	10.7	x	-2.4	-6.1
COc1cc(C(=O)NC(=S)N2CCCCCC2)cc(OC)c1OC	0.8	-5.5	-3.1	x	-10.6	-0.6	4.0	0.1
CCCCSc1nc2c(cnn2-c2ccc(F)cc2)c(=O)[nH]1	2.5	-7.3	-2.1	-2.9%	-10.0	-1.2	2.2	2.2
C=CCNC(=O)C1CCN(c2cnccn2)CC1	-0.7	-7.6	-7.4	-12.6%	11.0	0.8	u	-1.3
Cc1cc(Nc2ccccc2)n(-c2nc3ccccc3[nH]2)n1	-1.0	-25.1	31.0	-7.1%	23.3	x	-2.2	2.2
COc1ccc(CNc2nc3ccccc3n2Cc2ccccc2)cc1OC	-0.6	-8.2	-11.5	-1.3%	9.0	x	-4.6	0.8
C/C=C\C=C/C(=O)Nc1cccc(C2=NOC3(C2)C[C@@H](C(N)=O)N(C(=O)/C=C/CC)C3)c1 (stereo partly drawn)	3.8	25.3	-3.2	26.7%	-14.3	x	u	0.5
COc1cc2sc(-c3ccc(S(C)(=O)=O)cc3)c(-c3ccc4c(c3)OCO4)c2cc1OC	0.7	x	9.3	x	x	1.4	x	0.2
C=CCn1c(SCC(=O)Nc2ncc(Cc3ccc(C)c(Cl)c3)s2)nnc1-c1ccncc1	2.7	7.6	1.9	16.6%	9.2	x	4.0	-0.4
Cc1ccc(C(=O)OC2CCOC2=O)cc1NC(=O)c1ccco1 (stereo not drawn)	1.5	-1.4	-0.8	0.0%	-5.3	x	6.4	-0.2
CCN(CC)CCNC(=O)C1CCC(=O)N1CCc1ccccc1 (stereo not drawn)	2.6	5.2	-2.2	5.2%	-19.8	x	2.4	0.6
O=c1[nH]c(/C=C/c2ccccc2F)nc2ccccc12	0.8	7.4	7.0	x	-44.1	5.7	-3.1	-11.8
CCOc1ccc(N(C(C)C(=O)N2CCCC2)S(C)(=O)=O)cc1 (stereo not drawn)	-1.7	0.0	-2.4	-5.3%	3.4	-2.3	3.6	0.3
CCc1cccc(NC(=O)c2ccc(Cn3c(=O)[nH]c4ccsc4c3=O)cc2)c1	-1.5	-2.5	2.1	x	-2.6	-0.6	4.2	-0.5
CCOC(=O)/C=C1\SCC(=O)N1CC(=O)Nc1ccc2c(c1)CCC2	-0.9	-20.7	0.2	-2.9%	-0.5	x	2.3	0.0
CCc1ccc(NC(=O)CS(=O)CC(=O)Nc2ccc(F)cc2F)cc1 (stereo not drawn)	3.2	19.7	-4.4	3.5%	-2.2	x	-1.0	-0.5
COc1ccc(-c2[nH]nc3c2C2(C(=O)N(CC(=O)O)c4ccccc42)C(C#N)=C(N)O3)cc1OC (stereo not drawn)	-5.6	10.2	x	11.1%	8.5	1.5	-1.4	0.4
COc1ccc(-n2c(=S)[nH]c3cc(C(=O)Nc4ccc(OC)c(OC)c4)ccc3c2=O)cc1	125.7*	7.1	2.5	x	-18.4	x	0.2	0.1
O=C(CSc1nnnn1-c1cccnc1)Nc1ccc(OCc2ccccc2)cc1	4.4	-0.3	2.9	-2.1%	29.6	x	u	-0.8
O=C(NNC(=O)c1cnccn1)c1cccc([N+](=O)[O-])c1	-3.7	33.9	x	22.7%	-9.9	x	1.7	-0.6
CN(C)c1ccc(C(=O)NNC(=O)c2ccc(Cl)cc2)cc1	0.6	0.4	-0.7	-6.3%	-5.7	-0.9	-2.8	-0.8
O=C(c1cc(-c2ccc(Cl)cc2)n(-c2ccc(Cl)cc2)n1)N1CCOCC1	-1.3	2.4	-1.8	24.0%	22.7	x	-0.4	0.1
O=C(NCc1ccccc1F)c1cccc(S(=O)(=O)NCc2ccccc2)c1	-3.6	-8.4	-1.7	-6.4%	3.7	-0.6	-2.2	0.6
CC(OC(=O)c1cccc(-n2cnnn2)c1)C(=O)Nc1ccc(F)cc1Cl (stereo not drawn)	-3.4	-0.6	4.8	-7.3%	3.4	-0.4	u	-0.1
COc1ccc(N(C)S(=O)(=O)c2c(C)[nH]c(=O)[nH]c2=O)c(OC)c1	5.0	-4.2	0.5	1.1%	-7.9	x	-3.4	1.5
CCC(C)c1ccc(NC(=O)C2CC2)cc1 (stereo not drawn)	-1.6	-26.3	-5.1	15.0%	6.6	x	3.7	-0.2
O=C(Cn1nnc(-c2ccc(CN3CCOCC3)cc2)n1)NC1CCCCC1	5.5	-14.1	-5.2	2.2%	-19.9	x	1.3	0.3
CCOc1cc(N2CCOCC2)c(OCC)cc1NC(=O)Cn1cnnn1	4.5	x	-3.6	x	x	-2.2	x	-1.6
COc1ccc(NC(=O)Nc2cc(C)cc(C)c2)cn1	-3.1	1.3	-2.9	31.9%	10.4	2.9	-1.0	-0.1
CC(C)CNC(=S)N1CCC(C(=O)c2ccc(F)cc2)CC1	-1.8	-15.6	1.7	x	-8.0	-2.4	5.0	0.3
COc1ccc(CCNC(=O)CN(C2CCCCC2)S(C)(=O)=O)cc1	3.4	0.0	-0.9	5.0%	-12.7	x	2.0	0.4
CCCOc1ccc(C(=O)N2CCCC2)cc1OC	-2.5	-10.7	-1.5	-0.6%	-5.0	x	0.7	0.2
COc1ccc(CN2CCC(C(=O)Nc3ccc(Oc4cccnc4)cc3)CC2)c(C)c1C	2.7	33.7	-6.3	x	12.8	-0.8	3.3	0.8
O=C(O)[C@H](Cc1ccccc1)NC(=O)N1CCC(Cc2ccccc2)CC1	17.9*	-4.7	3.9	x	-10.6	-0.1	-0.3	0.9
CC1CCCN(C(=S)NCc2ccccc2)C1 (stereo not drawn)	-1.0	-2.8	-2.0	-15.9%	-4.4	x	-2.0	-1.3
Oc1ccccc1Nc1nc(-c2ccccc2O)nc2ccccc12	4.0	12.5	7.8	1.8%	-6.3	2.3	-0.4	2.0
O=C(Nc1ccc(F)cc1)c1ccc(S(=O)(=O)NCC2CCCO2)cc1 (stereo not drawn)	1.8	-0.7	2.8	5.4%	-25.0	x	-0.8	0.1
CC(C)(C)OC(=O)N1CCN(C(=O)c2[nH]cnc2C(=O)Nc2ccon2)CC1	-8.0	x	-2.4	x	x	-5.1	x	0.4
O=c1c2ccccc2[nH]c(=S)n1CCc1ccccc1	3.1	-11.4	-4.0	-15.1%	-15.0	-0.6	-0.5	-0.1
COc1cccc(N2CCN(C(=O)c3ccc4nc[nH]c4c3)CC2)c1	-5.1	12.3	-5.2	x	8.4	-0.9	0.6	0.0
O=C(N/N=C/c1c(O)ccc2ccccc12)c1[nH]ncc1Br	0.9	46.3	102.7*	x	24.9	4.7	6.9	-2.1
CCOc1cc(C(C#N)N2CCCCC2)ccc1OC (stereo not drawn)	-4.8	4.8	-1.0	-4.4%	-2.2	x	-1.3	-0.5
Cn1c(=O)c2c(nc(CN3CCN(C(=O)c4ccco4)CC3)n2CCCO)n(C)c1=O	-4.7	1.7	0.1	x	-12.0	-0.8	1.9	1.7
CCN(CC)S(=O)(=O)c1ccc(NC(=O)CCNC(=O)c2ccccc2)cc1	-4.5	-5.4	-1.4	2.1%	-1.5	-4.9	-0.4	1.5
NNc1nc2c(Cl)ccc(Cl)c2s1	-1.4	-0.6	7.6	-4.6%	35.5	u	7.3	0.3
Cc1ccc(C(=O)NCC(=O)N2CCCCCCC2)cc1C	1.9	x	-5.8	-5.3%	x	-2.5	x	0.1
COc1ccc(CCNC(=O)CSc2nnc(-c3ccccc3)c3ccccc23)cc1OC	-2.4	17.5	-10.5	-2.4%	2.1	x	-5.8	1.1
Cc1c(C(=O)OC(C)C)[nH]c2c1C(=O)CC(C)(C)C2	14.3	-2.9	4.3	-0.4%	30.6	-1.6	8.5	-0.3
O=C(NCCN1CCN(Cc2ccc([N+](=O)[O-])cc2)CC1)C(=O)Nc1ccccc1	-1.9	-17.1	0.1	-5.0%	-15.0	2.6	-0.2	1.0
COc1ccc(OCC(=O)N2CCN(C(=O)c3cccs3)CC2)cc1	0.1	39.3	-2.5	12.5%	-21.8	x	2.6	-0.1
N#Cc1ccc(Cn2c(=O)c(C#N)c3n(c2=O)CCC3)cc1	-0.8	4.3	-5.7	u	-6.4	x	3.1	-0.2
COC(=O)C1CCCCN1C(=O)c1ccc2oc(Cc3ccccc3)nc2c1 (stereo not drawn)	6.3	2.1	3.1	0.9%	4.4	1.1	-2.0	1.1
COc1cccc(OC)c1NC(=O)c1nc2c(nnn2Cc2ccccc2Cl)c(=O)[nH]1	-0.4	46.6	-0.5	-4.8%	3.2	-1.4	-1.5	0.2

(cont.)
SMILES	LANA-H2B inh	Calb FLC	Beta cell apopt	Vif TR-FRET	T cruzi inh	MLL AF4-AF9 inh	RanGTP-Impb inh	Bfl-1 A1 inh
CCC(C)c1ccc(OCCn2ccnc2)cc1 (stereo not drawn)	2.7	-3.3	2.3	-4.4%	26.1	x	2.5	0.9
Cc1c(Cl)cccc1NC(=O)CSC(C)c1nc2ccccc2c(=O)[nH]1 (stereo not drawn)	0.3	-4.5	2.7	-6.6%	-2.6	0.7	-1.9	0.6
COC(=O)c1ccc(Cn2cnc3c(cnn3-c3ccc(F)cc3)c2=O)o1	-0.6	9.2	-3.8	26.6%	-1.7	x	u	0.9
COc1ccc(OC)c(NC(=O)CCc2nnc3ccc(NCc4ccco4)nn23)c1	-4.7	-3.0	x	x	8.2	6.1	4.5	-0.9
O=C(OCC(=O)N1CCCCCC1)c1cccnc1Cl	-3.2	x	-1.4	x	x	2.2	x	-0.6
Nc1ccc2ncccc2c1	4.2	21.5	-6.0	6.5%	-18.0	3.6	0.3	-1.5
CCOC(=O)N1CCN(c2nc(SC)nc3sc4c(c23)CC(C)(C)OC4)CC1	2.9	-11.3	9.6	x	25.8	x	2.5	0.9
O=C(O)CCC(=O)N1CCc2cc(S(=O)(=O)N3CCCCC3)ccc21	-5.9	-11.5	2.4	-2.6%	-8.7	1.0	3.5	-0.5

Source: PubChem (several laboratories)
